Sa growth 42C: S. aureus growth inhibition; 0.53% of 170,000 active; S. aureus RN4220 growth, OD600, 20 h, 42 °C; hits give low values; relative growth, % (test concentration not listed);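 active means growth at 42 °C up to 50% and 20 or more points under that at 30 °C, or under 10% at both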;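 further: 300 nL library stock went into each well; scaled to the means of positive and negative controls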
GIV-Gai inh: blocks GIV peptide binding to rat Galpha-i3; Galpha-i3/FITC-GIV peptide fluorescence polarization, 90 min; hits give low values; scaled: aluminum fluoride 0%, vehicle 100%; percent of control (FP), % (concentration not given with the values); 0.42% of 210,000 active;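 active means replicate mean at 85% of control or lower, very high polarization wells dropped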;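 further: wells of about 15 µL received 100 nL stock; the first replicate is given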
Target sequence (P08753 whole entry, looked up): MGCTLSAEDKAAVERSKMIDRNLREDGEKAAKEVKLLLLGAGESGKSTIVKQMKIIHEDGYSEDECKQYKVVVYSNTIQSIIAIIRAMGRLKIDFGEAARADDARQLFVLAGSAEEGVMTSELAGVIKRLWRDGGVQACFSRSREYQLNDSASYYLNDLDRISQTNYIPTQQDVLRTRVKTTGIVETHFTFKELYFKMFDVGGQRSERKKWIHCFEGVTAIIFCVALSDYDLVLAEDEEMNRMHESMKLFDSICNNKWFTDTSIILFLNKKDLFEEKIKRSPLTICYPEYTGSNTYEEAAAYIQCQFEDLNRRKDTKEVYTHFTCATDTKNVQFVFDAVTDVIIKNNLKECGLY
HCMV UL50-53 inh: disrupts HCMV UL50-UL53 complex binding; HTRF UL50-UL53 interaction, normalized percent inhibition; inhibition, % (test concentration not listed); 0.15% of 190,000 active; AID 1918969;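 active means both replicates at 50% or more, plus weaker picks with an unusually low signal ratio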;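 further: stock transfer was 100 nL into about 20 µL; 0% = negative control wells and 100% = wells with untagged competitor protein; inactives centre near -12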
Sa growth 42C second temp: second read-out of Sa growth 42C, no call of its own (marks repeat the call); relative growth, %; measured here: growth at 30 °C;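 optical density after 20 h as mean of two plates; 100% = untreated growth and lower means inhibition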
* hit, by the source's call; · = not tested or not shown; & = joins results of further samples.

SMILES	Sa growth 42C	Sa growth 42C second temp	GIV-Gai inh	HCMV UL50-53 inh
CCc1ccc(OCc2nnc(SCCC#N)n2C(C)c2ccccc2)cc1 (centres undefined)	81	85	·	-32
CN(C)c1ccc(-c2nc(-c3ccccc3)c(-c3ccc(O)cc3)[nH]2)cc1	83	70	110	9
O=C(NCc1ccc2c(c1)OCO2)c1ccc2c(c1)N(Cc1ccccc1F)C(=O)c1ccccc1S2	119	99	100	·
O=C(OCC1CCCO1)c1ccc2c(c1)N(Cc1cccnc1)C(=O)c1ccccc1S2 (centres undefined)	·	·	100	-17
COc1cccc(-c2nc3n(c2C(=O)N(C)C)CCS3(=O)=O)c1	·	·	101	-26
O=C(COC(=O)Cc1ccsc1)Nc1ccc(Cl)c(C(F)(F)F)c1	99	85	·	-22
CC(C)Sc1nc2sc3c(c2c(=O)n1Cc1ccccc1)CCCC3	98	97	102	-22
CN1C(=O)C2(C(C#N)=C(N)Oc3cc(O)ccc32)c2ccccc21 (centres undefined)	104	94	107	-36
CN(CCc1ccccn1)C(=S)NCc1ccccc1	100	101	·	-2
Cc1nc(Nc2ccc(NC(=O)Nc3ccc(C)c(C)c3)cc2)cc(N(C)C)n1	·	·	106	-30

Filtered by structure: those above containing a carbonyl joined to an NH by a bond outside any ring.
SMILES	Sa growth 42C	Sa growth 42C second temp	GIV-Gai inh	HCMV UL50-53 inh
O=C(NCc1ccc2c(c1)OCO2)c1ccc2c(c1)N(Cc1ccccc1F)C(=O)c1ccccc1S2	119	99	100	·
O=C(COC(=O)Cc1ccsc1)Nc1ccc(Cl)c(C(F)(F)F)c1	99	85	·	-22
Cc1nc(Nc2ccc(NC(=O)Nc3ccc(C)c(C)c3)cc2)cc(N(C)C)n1	·	·	106	-30

(listing goes on)
SMILES	Sa growth 42C	Sa growth 42C second temp	GIV-Gai inh	HCMV UL50-53 inh
CCC(C)[C@H](N)c1nnc(SCc2ccc(Cl)c(Cl)c2)o1 (some centres undefined)	98	87	109	6
O=S1(=O)C=C(N2CCCC2)c2ccccc21	86	108	95	-9
COc1ccc(OCC(O)CNC(=S)Nc2ccc3c(c2)OCO3)cc1 (centres undefined)	86	83	104	-32
CN1CCN(C(=O)C2CCCCC2C(=O)O)CC1 (centres undefined)	131	118	101	0
O=C1C2CC=C(Cl)CC2C(=O)N1c1ncn[nH]1 (centres undefined)	101	67	103	-1
Cc1ccc(OCC(=O)Nc2c(C(=O)c3ccccc3)oc3ccccc23)cc1C	106	94	109	-1
Cc1cc(Sc2ccccc2NC(=O)Nc2ccc(F)cc2F)n2ncnc2n1	·	·	102	-23
C=CCN1C(=O)/C(=C\c2ccc(Oc3ccc([N+](=O)[O-])cc3[N+](=O)[O-])c(OC)c2)SC1=S	·	·	110	-32
Cc1nn2c(C)c(C(=O)NCc3ccc(OC(C)C)cc3)cnc2c1-c1ccc(F)cc1	93	92	99	·
CN(C)S(=O)(=O)c1cccc(COC(=O)C2=COCCO2)c1	92	99	·	-14

Next section, starting with the last two of the part before.
SMILES	Sa growth 42C	Sa growth 42C second temp	GIV-Gai inh	HCMV UL50-53 inh
Cc1nn2c(C)c(C(=O)NCc3ccc(OC(C)C)cc3)cnc2c1-c1ccc(F)cc1	93	92	99	·
CN(C)S(=O)(=O)c1cccc(COC(=O)C2=COCCO2)c1	92	99	·	-14
CC1(C)OC(=O)C(=Cc2cc(Br)c(O)c(Br)c2)C(=O)O1	80	53	110	11
CSc1ccc(/C=N/n2c(=O)oc3ccccc3c2=O)cc1	93	94	102	-41
CCOC(=O)[C@@H]1CSC2C3SC[C@@H](C(=O)OCC)N3CCN21 (some centres undefined)	90	83	101	-26
CN(CC(=O)NC(=O)NC1CCCCC1)Cc1nc2ccccc2c(=O)[nH]1	104	87	·	-19
O=S(=O)(c1ccccc1)N1CCN(CC2CC=CCC2)CC1 (centres undefined)	86	101	103	-7
O=C(CC12CC3CC(CC(Br)(C3)C1)C2)NC1CCCC1	97	98	·	-6
Cc1cc(C)c2[nH]c(=O)c(CN(CCCO)C3(c4nnnn4C4CCCC4)CCCC3)cc2c1	119	109	106	-7
CCCN(S(=O)(=O)c1ccccc1F)S(=O)(=O)c1ccccc1Br	79	90	·	-32
CC1(C(=O)NCc2ccc(F)cc2)CCN(C(=O)Nc2ccc(F)c(Cl)c2)CC1	·	·	106	18
COc1ccc(C(=O)N2CCSC2=S)cc1	89	92	97	-12
CN(Cc1ccco1)C(=O)Cn1nc(-c2ccc(Cl)cc2)ccc1=O	107	87	102	-27
O=C(CSCCc1ccccn1)Nc1nccs1	108	97	104	-6
Cc1sc2ncnc(Sc3nnc(-c4cccs4)n3CC3CCCO3)c2c1C (centres undefined)	103	97	·	-18
CCOc1ccc(CCNS(=O)(=O)c2ccc3c(c2)CCN3C(=O)C2CC2)cc1OCC	98	77	98	·
Cc1cc2c(cc3n2CC(C)(C(=O)NC2CCCCC2)N(CCN2CCCC2)C3=O)o1 (centres undefined)	·	·	99	-13
Cc1ccc(CC2C(=O)N(c3cccc(C(F)(F)F)c3)C(=O)C2C)cc1 (centres undefined)	67	85	106	·
O=C(NCc1nc2ccccc2[nH]1)c1c(F)cccc1F	94	89	101	-7
COC(=O)Cn1cnc2c(-c3ccc(Br)cc3)noc2c1=O	·	·	95	-33
CN(C)C1(CNC(=S)NCc2ccccc2)CCCCC1	93	92	·	-11
COc1ccc(-c2nnc(SCC(=O)Nc3cc(OC)ccc3OC)nc2-c2ccc(OC)cc2)cc1	105	99	97	·

Some values from the results shown.
Value for `CN(Cc1ccco1)C(=O)Cn1nc(-c2ccc(Cl)cc2)ccc1=O` under GIV-Gai inh: 102
Value for `CN(C)C1(CNC(=S)NCc2ccccc2)CCCCC1` under HCMV UL50-53 inh: -11
Value for `COC(=O)Cn1cnc2c(-c3ccc(Br)cc3)noc2c1=O` under HCMV UL50-53 inh: -33
Value for `O=C(NCc1nc2ccccc2[nH]1)c1c(F)cccc1F` under HCMV UL50-53 inh: -7

Other records follow:
SMILES	Sa growth 42C	Sa growth 42C second temp	GIV-Gai inh	HCMV UL50-53 inh
[Li+]	·	·	105	-34
CCn1nnc2cc(C(=O)Nc3ccc(S(=O)(=O)C(F)F)cc3)ccc21	120	88	·	-19
O=C(CSc1nccn1Cc1ccco1)Nc1cccc(F)c1	97	95	110	·
Cc1nn(C)c(C)c1CNC(=O)c1cnn2c(C(F)F)cc(-c3ccccc3)nc12	·	·	125	-41
CC(=O)OC1(C#CCN2CCCC[C@H]2c2cccnc2)CCCCC1	108	76	100	-25
Cc1cc(C)c2c(=O)cc(C(=O)Nc3sc4c(c3C(=O)NCc3ccco3)CCCC4)oc2c1	92	86	103	-3
Cc1ccccc1CN(Cc1ccco1)C(=O)c1cc2ccccc2oc1=O	123	108	104	-6
CCOC(=O)C1=C(O)/C(=C\c2ccccc2)N=C1C	87	91	·	-52
COc1ccccc1N1CCN(c2ncnc3nc[nH]c23)CC1	96	85	98	-17
CCc1ccc2c(c1)c(=O)c(S(=O)(=O)c1ccc(Cl)cc1)cn2CC	107	82	108	-29
O=C(Nc1cccnc1)c1cn(-c2ccccc2)nc1-c1cccs1	63	95	·	-11
Cc1cc(N)n2ncnc2n1	83	81	103	-34
CCOC(=O)C1CCN(C(=O)c2ccccc2)CC1	84	89	101	-10
Cc1ccccc1NC1=NC2(CCCCC2)N=C(N)N1	105	86	100	·
Cc1ccc(C)n1-c1nnc(N2CCC(C(=O)O)CC2)s1	92	81	98	-22
COc1cccc(C2CC(C(F)(F)F)n3ncc(C(=O)O)c3N2)c1 (centres undefined)	115	97	107	·
O=C(Oc1ccc2c(c1)OCO2)c1cccc(S(=O)(=O)N2CCCC2)c1	94	66	102	-3
CNC(=O)NC(=O)C(Sc1nnc2sc3ccccc3n12)c1ccccc1 (centres undefined)	91	97	·	-29
CCOC(=O)c1c(O)c(Cl)c(C)[nH]c1=O	109	87	·	-7
O=C(Cn1c(=O)c2sccc2n(Cc2cccc(Cl)c2)c1=O)NCc1ccco1	101	78	104	·
O=C(CN1C2=NCCN2c2ccccc21)C12CC3CC(CC(C3)C1)C2	79	69	100	-23
COC(=O)c1cn(-c2ccccc2)nc1-c1cccs1	18*	56*	·	20
O=C(NCc1ccccc1)C1CC1(c1ccccc1)c1ccccc1 (centres undefined)	90	103	·	-5
CN1/C(=C\C(=O)c2ccccc2)Sc2ccccc21	91	64	106	-45
CC(=O)Nc1ccc2nc3c(=O)n(C)c(=O)n(C)c3nc2c1C	85	85	107&92	-90&-74
CN1CCC(N(C)C(=O)COc2ccc(S(=O)(=O)N3CCOCC3)cc2)CC1	109	87	·	-4
N#CCSc1nc2cc(C(=O)NCc3ccccc3)ccc2c(=O)n1CCc1ccccc1	116	93	99	·
CC(C)N(C(=O)Cn1c(=O)n(-c2ccc(F)cc2)c(=O)c2oc3ccccc3c21)C(C)C	104	96	101	-25
CCc1ccc(NC(=O)CN(C)S(=O)(=O)c2cc(Br)cnc2N)cc1	120	81	103	·
O=C(Nc1cccc(Cl)c1)OCC#Cc1ccc(-c2ccccn2)s1	99	95	107	8

Reprinted from the part before: 2 compounds; new compounds follow.
SMILES	Sa growth 42C	Sa growth 42C second temp	GIV-Gai inh	HCMV UL50-53 inh
CCc1ccc(NC(=O)CN(C)S(=O)(=O)c2cc(Br)cnc2N)cc1	120	81	103	·
O=C(Nc1cccc(Cl)c1)OCC#Cc1ccc(-c2ccccn2)s1	99	95	107	8
CN(c1ccc2c(c1)OCO2)S(=O)(=O)c1ccsc1-c1nc(-c2ccc3c(c2)OCO3)no1	·	·	105	-19
Cc1ccc(N/C(N)=N/c2nc(C)cc(=O)[nH]2)c(C)c1	112	89	100	·
O=C(NCCN1CCCC1)c1ccc(F)cc1	102	78	106	-24
O=C(/C(=C\c1ccc(F)cc1)n1ccccc1=O)N1CCCC1	117	92	101	-1
CCc1ccc(-n2nc(C)c3c(C(=O)Nc4cccc(C(F)(F)F)c4)cc(C)nc32)cc1	82	91	101	·
NC(=O)c1ccc(NC(=O)CSC(=O)c2ccccc2)cc1	127	78	·	-36
Oc1ccc(Cl)cc1C1=Nc2ccccc2N=C(c2ccccc2)C1	100	102	103	4
CCCSc1ncc(Cl)c(C(=O)Nc2sc3c(c2C(=O)NCC)CCCC3)n1	107	87	100	0
CCc1nnc2c3ccccc3nc(Nc3ccc(F)cc3C)n12	104	76	107	-3
COc1cc(OC)c(N(C)C(=O)CSc2c3c(nc4ccc(Cl)cc24)CCCC3)cc1Cl	89	87	108	-15
CCSc1nc2ccccc2c(=O)n1CC	74	100	107	-3
Cc1ccc2cc3c(nc2c1)N(c1ccc(C(=O)O)cc1)CC3	94	94	104	-2
CC(C)(C)c1ccccc1NC(=O)c1ccc2c(c1)SC1=NS(=O)(=O)CCN12	85	95	·	3
Cc1nonc1NC(=O)Nc1cccnc1	114	81	·	22
Cc1cccc(N2C(=O)c3ccc(C(=O)Nc4c[nH]c(=O)[nH]c4=O)cc3C2=O)c1C	117	79	·	-27
COC(=O)C1=C(CS(=O)(=O)c2ccccc2)NC(=O)NC1c1ccccc1 (centres undefined)	100	89	101	-10
Cn1cc(NC(=O)NCCc2ccsc2)c2ccccc2c1=O	76	87	98	·
CCc1ccc(-n2nc(CO)c(C(=O)NCCOC)n2)cc1	91	83	100	-32
Nc1nonc1C(=O)N1CCCCC1	78	116	·	4
O=C(CN1CCN(S(=O)(=O)c2ccc3[nH]c(=O)[nH]c3c2)CC1)N1CCCCCC1	85	92	·	-26
CC(=O)c1ccc(NS(=O)(=O)c2cc(-c3cc(C)no3)ccc2C)cc1	121	83	97	·
CCN(CC)c1ccc(-n2c(C)cc(/C=C3/NC(=O)N(Cc4ccccc4F)C3=O)c2C)cc1	105	75	103	·
COc1ccc(CCNC(=O)Cc2csc3nc(-c4ccccc4)cn23)cc1	·	·	107	0
COc1ccc2cc3cc(C(=O)NC4CCCC(C)C4C)oc3nc2c1 (centres undefined)	104	76	104	·
CC(=O)OCC(=O)Nc1ccccc1	104	100	·	10
COc1ccc(NC(=O)Cc2ccc(NC(=O)N3CCCCc4ccccc43)cc2)cc1	·	·	101	-26
CCOc1ccccc1Oc1ncnc2c1oc1ccccc12	90	86	105	·
CCc1ccccc1N(CC(=O)N1CCc2ccccc2C1)S(C)(=O)=O	90	87	108	14
O=C(/C=C/c1c(Cl)nc2sccn12)Nc1ccc(F)cc1	121	86	·	-53
Cc1cc(C(=O)OC(C)C(=O)N2CCc3ccccc32)c2ccccc2n1 (centres undefined)	93	95	·	-11
O=C(NCc1cccs1)c1cccn2c(=O)c3c4c(sc3nc12)CCCC4	102	83	111	-24
COC(=O)c1cc(S(=O)(=O)N2CCC(C)CC2)c[nH]1	98	94	103	2
O=C(O)C1CC1C(=O)Nc1ccc(Oc2ccc(Cl)cc2C2CCCCC2)nc1 (centres undefined)	81	89	103	15
CCOC(=O)c1ccc(NC(=O)c2ccc(-c3ccc(F)cc3)o2)cc1	128	113	109	-8
CCOC(=O)c1[nH]c(C(=O)O)c(CCN(CC)CC)c1C	95	94	108	-10
O=C(NCCO)c1nc2ccccc2s1	99	73	101	-7
CCCNC(=O)Nc1cc(C)ccn1	122	99	105	-34
CCCCn1c(=O)n(CC2CCC(C(=O)NCCCOC)CC2)c(=O)c2sccc21 (centres undefined)	110	92	102	·
Cc1cn(C2C=CC(CO)O2)c(=O)[nH]c1=O (centres undefined)	97	88	109	9&-8&-10
COc1ccc(S(=O)(=O)N(C)CC(=O)O)c2ccccc12	107	97	·	-16
NC(=O)CSc1nc2[nH]ncc2c(=O)[nH]1	99	90	102	-28
O=C(Cc1ccccc1)N1N=C(c2ccc(Br)cc2)CC1(O)C(F)(F)F (centres undefined)	·	·	107	-10
CC(CC(=O)NCCN1C(=O)S/C(=C\c2cccs2)C1=O)n1ccnc1 (centres undefined)	95	83	·	-130

Screening data (PubChem)
